High-throughput results: PubChem, National Center for Advancing Translational Sciences (NCATS)
VDR inhibitor = inhibitors of human vitamin D receptor; VDR-SRC2-3 peptide fluorescence polarization, 2 h; Potency, µM, for inactives: max response, negative = inhibition, most hits filed as inhibitors; 0.93% of 400,000 active; active = well fitted inhibition curve with a large enough effect; inconclusive = small, poorly fitted or top-dose-only effect, or another doubt; inactive = no such curve, though single readings can be large or run the other way; also: series mostly up to about 120 µM
Target sequence (P11473 whole entry, looked up): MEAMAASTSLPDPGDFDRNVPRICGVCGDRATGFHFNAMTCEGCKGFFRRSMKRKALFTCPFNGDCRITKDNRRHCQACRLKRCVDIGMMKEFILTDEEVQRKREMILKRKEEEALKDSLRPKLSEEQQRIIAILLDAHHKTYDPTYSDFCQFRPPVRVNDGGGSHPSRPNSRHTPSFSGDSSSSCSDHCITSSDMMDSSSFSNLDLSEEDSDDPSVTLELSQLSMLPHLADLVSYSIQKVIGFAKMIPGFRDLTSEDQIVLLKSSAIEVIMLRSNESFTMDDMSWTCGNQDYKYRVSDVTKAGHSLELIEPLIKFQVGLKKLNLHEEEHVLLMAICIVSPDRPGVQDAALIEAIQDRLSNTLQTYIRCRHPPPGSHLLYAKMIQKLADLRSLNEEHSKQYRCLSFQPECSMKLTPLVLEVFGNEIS
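Reagent solutions, kept cold and dark, are dispensed first; compounds are then pinned in at 23 nl, plates briefly spun, and incubated 2 h at ambient temperature. Inhibition of VDR–SRC2-3 peptide binding is read by fluorescence polarization.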
* hit, by the source's call; ? = inconclusive; & = joins results of further samples. % is scaled to controls: 0 for no effect and ±100 for the full control effect; potency is read from the fitted curve at half-maximal effect. This is a subset (hit frequency here may not be typical).

Start of the data: the first two entries as a preview:
VDR inhibitor	molecule
14µM*	CCC(=O)Nc1sc2c(c1C(=O)Nc1ccc(Br)cc1)CCCCC2
-8%	CCN(CC(=O)Nc1c(F)cccc1F)C(=O)c1ccc(N2CCCCC2)c([N+](=O)[O-])c1

The listing, previewed entries included:
VDR inhibitor	molecule
14µM*	CCC(=O)Nc1sc2c(c1C(=O)Nc1ccc(Br)cc1)CCCCC2
-8%	CCN(CC(=O)Nc1c(F)cccc1F)C(=O)c1ccc(N2CCCCC2)c([N+](=O)[O-])c1
13%	COc1ccc(NC(=O)CCCNC(=O)Cn2cnc3sc4c(c3c2=O)CCCC4)c(OC)c1
0%	NCCCC[C@@H]1NC(=O)[C@H](CCC(=O)O)NC(=O)c2cc([N+](=O)[O-])cc(I)c2OCC[C@@H](C(N)=O)NC1=O
8%	CCN1CCN(Cc2cc(=O)oc3ccc(Cl)cc23)CC1
-8%	O=C(CCl)Nc1ccc(S(=O)(=O)NC2=NCCCCC2)cc1
-15%	CCc1ccc(NC(=O)C2CCN(S(=O)(=O)c3c(C)noc3/C=C\c3ccc(OC)cc3)CC2)cc1
-12%	COc1ncc(C2=CC(=O)CC(C)(C)C2)cn1
-11%	CCCCOc1ccc(C(=O)N/C(=C/C=C/c2ccccc2)C(=O)NCCCO)cc1
15%	COc1cc(NC(=O)CSc2nc3[nH]c(=O)cc(O)c3s2)cc(OC)c1OC
12%	Cc1cccc(NC(=O)c2ccc(CN3CC(=O)N4CCCCC4C3=O)cc2)c1C (centres undefined)
14%	CN(C)S(=O)(=O)c1cccc(NC(=O)c2cccc(S(=O)(=O)N3CCc4ccccc43)c2)c1
3%	COc1cc(NC(=O)c2ccc3c(c2)C(=O)N(CCC(C)C)C3=O)c(C(=O)O)cc1OC
-13%	Cc1cc2oc(=O)cc(CN3CCOCC3)c2c(C)c1Cl
-1%	Cc1ccc2c(c1)N(CC(=O)N1CCCC1)C(=O)c1cccnc1O2
-2%	CCOC(=O)c1ccccc1C(=O)N1CCOCCOCCOCC1
1%	O=C(NC1CCCCC1)N1CCN(c2ccc(Cl)cc2)CC1
-7%	Cc1nn(C(C)C)c(C)c1[C@@H]1C[C@H]2CN(Cc3cccc(Cl)c3)C(=O)[C@]23CCCN13
-11%	Cc1cccc(NC(=O)N2CCc3ccccc3C2)c1C
-14%	CC(C)(C)c1nnc(NC(=O)c2cccnc2)s1

(continued)
VDR inhibitor	molecule
-4%	O=C(O)/C=C/C(=O)Nc1ccc2c(c1)NC(=O)CO2
13%	Cc1ccc(NC(=O)CCC(=O)c2cccs2)c(O)c1
3%	CCC(=O)NC1=C(NC(C)c2ccccc2)C(=O)c2ccccc2C1=O (centres undefined)
-15%	COc1ccc(C(=O)NC(C(=O)OCC(=O)Nc2sccc2C(N)=O)C(C)C)cc1 (centres undefined)
6%	CS(=O)(=O)N(CC(=O)N1CCCC1)Cc1ccc(F)cc1
3%	Cn1nnnc1SCC(=O)Nc1cc(C(F)(F)F)ccc1N1CCOCC1
-16%	Cc1cc(/C=C(\C#N)C(N)=O)c(C)n1-c1ccc(N2CCOCC2)c([N+](=O)[O-])c1
-19%	CN1CCN(C(=O)CCN2C(=O)/C(=C\c3ccc(Cl)cc3)SC2=S)CC1
-2%&7%	Cc1ccc(-c2cn(-c3ccccc3)c3[n+]2CCCS3)cc1
17%	CCOC(=O)C1CCN(c2ncnc3c2cnn3-c2ccc(OC)cc2)CC1
2%	Cc1cccc(-c2noc(-c3cccnc3NCc3ccc(Cl)cc3)n2)c1
9%	Cc1ccc(C(=O)Nc2ccc(S(=O)(=O)Nc3onc(C)c3C)cc2)cc1
5%	CC1=C(c2ccc(C)cc2)S(=O)(=O)N(Cc2ccc(C(=O)Nc3ccccc3C)cc2)C1=O
2%	CC#CC(=O)Nc1cc2c(Nc3ccc(F)c(Cl)c3)ncnc2cn1
8%	O=C(NNC(=O)c1n[nH]c2ccccc12)c1ccccc1
2%	O=C(COC(=O)/C=C/c1ccccc1)Nc1ccc2c(c1)OCCO2
5%	Nc1nc(SCC(=O)NCCN2CCOCC2)nc2sc3c(c12)CCC3
-16%	COC(=O)c1ccc(CSCC(=O)Nc2ccccc2)cc1
4%	O=C(CN(CCc1ccccc1)S(=O)(=O)c1ccc(Br)cc1)NCc1ccc(Cl)cc1
-2%	COc1ccc(/C=N/NC(N)=S)cc1OC(=O)c1ccccc1

The results go on:
VDR inhibitor	molecule
-3%	CCC1Oc2ccccc2N(CC(=O)NCc2ccco2)C1=O (centres undefined)
4%	CC(=O)Nc1ccc(S(=O)(=O)N2CCN(CCCOc3ccccc3Cl)CC2)cc1
-2%	O=C(Nc1ccc(F)cc1)Nc1csc2c1CCCC2
14%	CCCCC12CN3CC(C)(CN(C1)C31C(=O)N(C)c3ccc(C)cc31)C2=O (centres undefined)
-24%	CONc1nc(NC(C)(C)C)nc(OCC#N)n1
5%	COc1ccc(-c2oc(NC(C)=O)c(C#N)c2-c2ccc(OC)cc2)cc1
4%	CCOC(=O)N1CCN(C(=O)COc2ccc(Br)cc2)CC1
4%	COc1cccc(/C=N/n2c(C3CCCCC3)n[nH]c2=S)c1OC
14%	CCOc1cccc(-c2nn(-c3ccccc3)cc2/C=C(/C#N)C(=O)NCCCn2ccnc2)c1
4%	Cc1ccc(/C=C/C(=O)Nc2ccccc2C(N)=O)o1
?	CC(NC(=O)c1ccc(Cn2cc([N+](=O)[O-])cn2)cc1)c1ccccc1 (centres undefined)
-19%	O=C(CCc1nnc(-c2ccccc2)o1)NCc1c(F)cccc1F
5%	COc1ccc(CCC(=O)OCC(=O)Nc2sccc2C(N)=O)cc1OC
-2%	Cc1ccc(C)c(NC(=O)Cn2nnc(C(=O)Nc3c(C)cccc3C)c2N)c1
13%	O=C(N/N=C/c1ccc(OC(F)F)cc1)c1ccc(Br)cc1
0%	OCC1CCCN(C(=S)Nc2ccc(Nc3ccccc3)cc2)C1 (centres undefined)
28%	CCOC(=O)CCn1c(=O)c2cccn2c2cccnc21
-3%	COCCCNCCOc1ccc(C)cc1[N+](=O)[O-]
7%	CCc1ccc(-c2[nH]c3c(c2-c2sc(C)c(C(=O)OC)c2O)c(=O)[nH]c(=O)n3C)cc1
?	COc1ccc(C2c3c(-c4cc(Cl)c(C)cc4O)n[nH]c3C(=O)N2Cc2cccnc2)cc1OC (centres undefined)

Looked up above:
CC#CC(=O)Nc1cc2c(Nc3ccc(F)c(Cl)c3)ncnc2cn1 | VDR inhibitor = 2%
CCOC(=O)N1CCN(C(=O)COc2ccc(Br)cc2)CC1 | VDR inhibitor = 4%
CCN1CCN(Cc2cc(=O)oc3ccc(Cl)cc23)CC1 | VDR inhibitor = 8%

Further compounds
VDR inhibitor	molecule
-13%	Cc1cccc(N2CCN(C(=O)C3CCN(S(=O)(=O)c4ccc5c(c4)oc(=O)n5C)CC3)CC2)c1C
6%	Nc1nonc1-n1nnc(C(=O)N/N=C/c2cccc(Cl)c2)c1-c1cccs1
-15%	c1ccc(N(c2ccccc2)c2nc(-n3ccnc3)nc(-n3ccnc3)n2)cc1
24%	c1ccn2cc(CSc3nnc4ccccn34)nc2c1
-6%	CC1Sc2ccc(S(=O)(=O)N3CCN(c4cccc(Cl)c4)CC3)cc2NC1=O (centres undefined)
-17%	O=C(Nc1ccc(C(=O)NCC2CCN(Cc3ccccc3F)CC2)cc1)C1=CSCCO1
12%	O=C(NC(Cc1ccccc1)C(=O)O)/C(=C/c1ccc([N+](=O)[O-])cc1)NC(=O)c1ccco1 (centres undefined)
-1%	CCCCn1c(N)c(N(CC(C)C)C(=O)CSCC(=O)Nc2ccc(C)cc2)c(=O)[nH]c1=O
7%	CCOC(=O)C1CCN(C(=O)c2ccc3c(c2)NC(=O)/C(=C/c2ccccc2)S3)CC1
-9%	Cc1cccc(N2CCN(C(=O)COc3ccc4ccc(=O)oc4c3)CC2)c1C
-22%	Cc1ccc(N2CC(C(=O)Nc3nnc(SCC(=O)NCC4CCCO4)s3)CC2=O)cc1C (centres undefined)
-4%	COc1ccc(NC(=O)Cn2c(=O)n(CCC(=O)NCc3ccccc3OC)c(=O)c3ccccc32)cc1Cl
17%	COC(=O)Nc1ccc(C)cc1NC(=O)OC
0%	COc1ccc(CN=C2NN=C(c3ccc(Cl)cc3)CS2)cc1
22µM*	O=C1C=C(c2ccc(Cl)cc2)C(=O)N1Nc1ccccc1
?	CNc1ccc(Br)cc(C(=O)/C=C/c2cccc(OC)c2)c1=O
2%	CN(C)S(=O)(=O)c1cccc(NC(=O)COC(=O)c2ccc(Br)o2)c1
14%	CCc1ccc(/C=C2\SC(=S)N(CCCC(=O)Nc3ccccn3)C2=O)cc1
?	COc1cc(OC)cc(C(=O)NCC(=O)OCC(=O)N2CCc3ccccc32)c1
-2%	COc1ccc(OC)c(/C=N/NC(=O)c2csc3ccccc23)c1

6 structures already listed, arranged by number of heavy atoms, high to low.
VDR inhibitor	molecule
-4%	COc1ccc(NC(=O)Cn2c(=O)n(CCC(=O)NCc3ccccc3OC)c(=O)c3ccccc32)cc1Cl
-1%	CCCCn1c(N)c(N(CC(C)C)C(=O)CSCC(=O)Nc2ccc(C)cc2)c(=O)[nH]c1=O
-15%	c1ccc(N(c2ccccc2)c2nc(-n3ccnc3)nc(-n3ccnc3)n2)cc1
2%	CN(C)S(=O)(=O)c1cccc(NC(=O)COC(=O)c2ccc(Br)o2)c1
0%	COc1ccc(CN=C2NN=C(c3ccc(Cl)cc3)CS2)cc1
22µM*	O=C1C=C(c2ccc(Cl)cc2)C(=O)N1Nc1ccccc1

(continued)
VDR inhibitor	molecule
-17%	O=C(CN1CCOc2ccccc21)NC1CCCCCCC1
-8%	Cc1c(C(=O)N2CCCCC2)sc(NC(=O)C2CC2)c1C#N
-1%	Cn1c(SCC(=O)N2CCOCC2)nnc1-c1cnccn1
-2%	O=C(COC(=O)C1CCC1)Nc1ncc(Cl)cc1Cl
-6%	CC1CC=CC2C1C(=O)N(Cc1ccccc1)C2c1ccc(F)c(/C=C/c2ccccc2)c1 (centres undefined)
-8%	O=[N+]([O-])c1ccc(CN2CCN(c3ccc(F)cc3)CC2)o1
2%	O=C1N(CN2C(=O)C3(OCCO3)c3ccccc32)c2ccccc2C12OCCO2
11%	CC(C)Oc1cccc(NC(=O)C2CCN(S(=O)(=O)Cc3ccccc3)CC2)c1
?	CCOc1ccc(-n2cc(C(=O)NC(C)C)c3cc(OC)c(OC)cc3c2=O)cc1
-11%	CCOC(=O)C1CCN(C(=O)CN2c3ccc(C(C)C)cc3-c3ccccc3S2(=O)=O)CC1
10%	COc1ccccc1CNC(=O)CCc1c(C)nn(-c2ccc(N3CCCC3)nn2)c1C
-2%	CN(Cc1ccccc1)C(=O)c1nc[nH]c1C(=O)N1CCN(C(=O)OC(C)(C)C)CC1
19%	Cn1c(=O)oc2ccccc2c1=O
?	O=C(COC(=O)c1ccccc1Cc1ccccc1)Nc1ccc(SC(F)F)cc1
-8%	O=C(NC1CCCC1)C1CCN(C(=O)c2ccc(Cl)cc2Cl)CC1
?	CCCCCC(=O)Nc1cc(S(=O)(=O)O)cc2cc(S(=O)(=O)O)cc(O)c12
16%	CC1(C)NC(=O)N(CC(O)CN2CCOCC2)C1=O (centres undefined)
5%	O=S(=O)(c1ccc2c(c1)CCN2)N1CCCC1
-26%	CCOC(=O)C(C)Oc1cccc2c(=O)n(CC(=O)NCc3ccc4c(c3)OCO4)ccc12 (centres undefined)
-17%	CCOc1ccc(OCCCC(=O)N(C)CC(=O)Nc2ccccc2Br)cc1

Going on with the list.
VDR inhibitor	molecule
4%	COc1ccc(NC(=O)C2C3CCC(O3)C2C(=O)O)c(C)c1 (centres undefined)
-2%	CC(=O)Nc1ccc(S(=O)(=O)N(C)CC(=O)N(C)Cc2sccc2C)cc1
-5%	COc1ccccc1CNC(=O)c1ccc(C)s1
7%	Cc1ccc2c(c1)nnn2C1CCN(CC(=O)NCCc2ccccc2)CC1
-6%	COc1ccccc1NC(=O)C(C)N1C(=O)c2ccccc2C1=O (centres undefined)
-22%	CC(=O)N1CCc2cc(Br)cc(S(=O)(=O)NCc3ccccn3)c21
-2%	CC(=O)N1N=C(c2ccccc2)CC1c1ccc(F)cc1 (centres undefined)
-3%	CCc1nnc(NC(=O)Cn2ccc(C(F)(F)F)n2)s1
-11%	NS(=O)(=O)c1ccc(NC(=O)/C=C/c2ccco2)cc1
19%	CC(C)C(C(=O)Nc1ncn[nH]1)N1C(=O)c2ccccc2C1=O (centres undefined)
2%	O=S(=O)(NCC(c1cccs1)S(=O)(=O)c1ccccc1)c1ccccc1 (centres undefined)
7%	Cc1ccc(N(CC(O)CN2C(=O)NC(C)(C)C2=O)S(=O)(=O)c2ccc([N+](=O)[O-])cc2)cc1 (centres undefined)
19%	O=C(/C=C/c1ccc([N+](=O)[O-])cc1)Nc1cccnc1
-5%	CC(C)CC(=O)NC(=S)Nc1cc(C(=O)O)ccc1Cl
8%	O=C(CNC(=O)c1ccc(OC(F)F)cc1)NCC1CCCO1 (centres undefined)
8%	Cc1ccc(S(=O)(=O)N(Cc2cccnc2)Cc2cc3ccccc3[nH]c2=O)cc1
12%&-17%	COc1ccc2c(C=Nc3c(C)n(C)n(-c4ccccc4)c3=O)c(O)n(Cc3ccco3)c(=O)c2c1
-2%	O=S(=O)(c1ccccc1)N1CCC(O)(CSc2ccc(F)cc2)CC1
13%	CN1CCN(C(=O)c2ccc(CNS(=O)(=O)c3cccc(Cl)c3)cc2)CC1
1%	O=C1NC(=O)/C(=C\c2ccsc2)N1
7%	C[C@H](CO)N1C[C@H](C)[C@@H](CN(C)C(=O)NC2CCCCC2)Oc2c(NS(=O)(=O)c3cccs3)cccc2C1=O
5%	C[C@@H](CN(C)C)CN1c2ccccc2CCc2ccccc21
-6%	Cc1ccc(C)c(N2CCN(S(=O)(=O)c3ccc(-c4ccc(=O)[nH]n4)o3)CC2)c1
